Bioassay records as filed in PubChem BioAssay.
CtBP-E1A blk: CtBP/E1A binding inhibition; AID 651724; activity change, % (no concentration beside the values); 340,000 compounds, 0.49% hits; AlphaScreen GST-E1A/His-CtBP binding, 1536-well; active compounds read low; control for the full effect not named in the record; in the data active means activity change below about -65%; inconclusive means about -30% to -65%; inactive means above about -30%; note: % is set by controls: 0 for no effect and ±100 for the full control effect
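Homogeneous bead-based format: GST-tagged E1A captured on glutathione donor beads, His-tagged CtBP on nickel acceptor beads; compounds precede bead addition by 2 h at 37 °C.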
D2 ag: human D2 receptor agonism in beta-arrestin assay. 360,000 compounds, 0.084% hits. DiscoveRx PathHunter D2 beta-arrestin, luminescence, 90 min; 100% = 57 uM dopamine signal. P14416. activation, % (no concentration beside the values); in the data active = activation above about 40%; inconclusive = about 15% to 40%; inactive = below about 15%; note: compound concentration not given in the record; the text of the record calls up to 30% inactive
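Agonist mode: compounds alone added to overnight-plated D2 PathHunter cells for 90 min at 37 C, with 57 uM final dopamine (EC100) defining full response. Beta-arrestin recruitment detected by chemiluminescent reagent, read after 1 h at ambient temperature.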
PINK1 modulator: modulators of PINK1 expression | PINK1 immunofluorescence, high-content cytometry, 24 h | Potency, µM (titrated, usually from 76.6 µM), for inactives: at the highest dose activation (PINK1 increase), hits mostly activators | 410,000 compounds, 0.2% hits; active = well fitted activation curve with a large enough effect; inconclusive = small, poorly fitted or top-dose-only effect; inactive = flat fitted curve, though single readings scatter; cell line not stated here;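 note: potency is the fitted concentration of half-maximal effect; % of control where 0% means no effect; nearly all actives have a fitted effect of over 65% in size; a mitochondrial uncoupler was the plate control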
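Stable cell line treated 24 h with compounds at 5 concentrations (CCCP controls), then fixed and immunostained for PINK1 plus nuclear and cell stains; PINK1 immunofluorescence quantified by laser-scanning microplate cytometry.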
TRPV1 potentiator: human TRPV1 potentiation. 320,000 compounds, 0.02% hits. AID 540277. potentiation, % at 8.33 µM. TRPV1-expressing cells, Fluo-8 calcium influx, capsaicin EC20 potentiation; host cell line not named in the record; control for the full effect not named in the record; active means potentiation above 80%; inconclusive means 30% to 80%; inactive means below 30%; note: 0% is about no effect
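Cells expressing TRPV1 were dye-loaded with Fluo-8 and read kinetically: 10 s baseline, 3 min after compound (agonist portion), then 2 min after EC20 capsaicin (allosteric enhancer portion). Calcium-bound dye fluorescence at 480/520 nm.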
Six1-Eya2 blk: blocks human Six1 binding to Eya2 | 360,000 compounds, 0.56% hits | AID 651725 | AlphaScreen GST-Six1/His-Eya2 binding, biochemical; active compounds read low; control for the full effect not named in the record | activity change, % (test concentration not listed) | Q15475+O00167; in the data active = activity change below about -65%; inconclusive = about -30% to -65%; inactive = above about -30%; note: % is set by controls: 0 for no effect and ±100 for the full control effect
Target sequence (O00167 whole entry, looked up): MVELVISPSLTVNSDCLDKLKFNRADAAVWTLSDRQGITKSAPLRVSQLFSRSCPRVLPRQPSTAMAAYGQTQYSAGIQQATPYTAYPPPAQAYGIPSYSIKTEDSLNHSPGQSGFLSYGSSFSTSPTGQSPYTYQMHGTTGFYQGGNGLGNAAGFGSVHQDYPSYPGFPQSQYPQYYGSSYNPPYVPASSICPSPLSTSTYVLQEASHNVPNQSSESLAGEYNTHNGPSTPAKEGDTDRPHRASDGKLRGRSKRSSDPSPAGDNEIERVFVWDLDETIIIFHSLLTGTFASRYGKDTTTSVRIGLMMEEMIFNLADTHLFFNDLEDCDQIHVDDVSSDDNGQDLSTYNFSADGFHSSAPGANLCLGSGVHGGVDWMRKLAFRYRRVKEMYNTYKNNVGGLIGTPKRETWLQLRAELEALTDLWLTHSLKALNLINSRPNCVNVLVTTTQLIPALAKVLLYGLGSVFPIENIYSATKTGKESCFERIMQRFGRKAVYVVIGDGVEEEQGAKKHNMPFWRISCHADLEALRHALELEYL
Target sequence (Q15475 whole entry, looked up): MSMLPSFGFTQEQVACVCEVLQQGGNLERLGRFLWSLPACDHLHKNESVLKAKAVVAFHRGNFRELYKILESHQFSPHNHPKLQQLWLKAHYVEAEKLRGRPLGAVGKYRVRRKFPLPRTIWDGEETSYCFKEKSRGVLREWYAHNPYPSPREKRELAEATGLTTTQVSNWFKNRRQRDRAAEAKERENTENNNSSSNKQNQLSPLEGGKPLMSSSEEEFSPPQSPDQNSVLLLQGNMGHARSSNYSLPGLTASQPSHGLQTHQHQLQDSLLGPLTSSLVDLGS
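Compounds are tested against tagged Six1 and Eya2 proteins bridged by glutathione donor and nickel acceptor beads; after a one-hour incubation at 37 °C without light, AlphaScreen emission is recorded.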
Sfp PPTase inh: blocks B. subtilis Sfp PPTase activity; Q9F4F7; Biochemical Sfp PPTase activity, qHTS; Potency, µM, for inactives: max response, negative = inhibition, actives largely listed as inhibitors; 310,000 compounds, 3.5% hits; active = well fitted inhibition curve with a large enough effect; inconclusive = small, poorly fitted or top-dose-only effect, or another doubt; inactive = no such curve, though single readings can be large or run the other way;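 note: the enzyme is Sfp with the accession as filed and its product quenches rhodamine fluorescence; potency is the fitted concentration of half-maximal effect; 0% = enzyme reaction without inhibitor and -100% = no enzyme wells; top concentration of the series not given in the record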
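After 15 min at room temperature with compound, 15 nM Sfp received 5 uM rhodamine-CoA plus 12.5 uM BHQ-2-ybbR (50 mM Hepes pH 7.6, 10 mM MgCl2). Rate came from the fluorescence difference over 30 min, ex 525/em 598 nm.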
D2 potentiator: positive allosteric modulators of human D2 dopamine receptor. P14416. DiscoveRx D2 beta-arrestin cells, luminescence, 90 min; 100% = 57 uM dopamine signal. potentiation, % (no concentration beside the values). 360,000 compounds, 0.23% hits. AID 624464; active = potentiation of 50% or more; inconclusive = 30% to 50%; inactive = 30% or less;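 note: compound concentration not given in the record; tested on top of an EC20 dose of dopamine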
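D2 cells co-treated with compound plus 50 nM dopamine (EC20) for 90 min at 37 deg C to detect potentiation. Beta-arrestin recruitment was read as enzyme-fragment luminescence after 1 h at ambient temperature. Full response was set by 57 uM dopamine.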
Starred values were filed as active, the others as inactive; ? = inconclusive; / = no result given; & = joins results of further samples; [ ] = remark or other dose.

Below each compound – CtBP-E1A blk | Sfp PPTase inh | D2 ag | PINK1 modulator | D2 potentiator | TRPV1 potentiator | Six1-Eya2 blk
Cc1onc(-c2ccccc2)c1C(=O)OCC(=O)N(CC(C)C)c1c(N)n(Cc2ccccc2)c(=O)[nH]c1=O
→ 3 | / | 0.0 | 3.5% | 8 | 8 | 6
CCOC(=O)c1sc2ncn(/N=C/c3ccc(O)cc3)c(=O)c2c1C
→ -7 | 0% | 4.7 | 3.8% | -7 | 3 | -3
COC(=O)c1ccc(/C=N/NC(=O)c2ccccc2Cl)cc1
→ -12 | 2% | -0.1 | -1.1% | -11 | -27 | -2
Cn1cnnc1Sc1ccc(C(F)(F)F)cc1[N+](=O)[O-]
→ 1 | 3% | 2.9 | -0.9% | 4 | 3 | 1
Cn1c(=O)c2c(SCc3ccccn3)nc(CC(C)(C)C)nc2n(C)c1=O
→ -2 | 3% | -1.4 | 0.8% | -4 | -6 | -1
O=S(=O)(c1ccccc1)N(Cc1ccccc1)c1ccccn1
→ 8 | 7% | -2.2 | 0.5% | -15 | -2 | 15
CCS(=O)(=O)C(=C1Nc2ccccc2N1)S(=O)(=O)CC
→ 6 | 12% | -3.1 | -0.8% | -9 | -7 | 4
Cc1ccccc1Cn1nc(C)c(NC(=O)C(F)(F)F)c1C
→ 7 | 9% | -1.1 | 3.5% | -9 | -2 | -9
CC(OC(=O)c1ccc(NS(=O)(=O)c2ccc3[nH]c(=O)[nH]c3c2)cc1)C(=O)Nc1cccc(Cl)c1Cl (centres undefined)
→ -5 | 10% | 1.7 | 1.6% | 2 | -6 | -3
Cc1nc2ccccc2c(=O)n1-c1ccc(NS(=O)(=O)c2ccccc2)cc1
→ -3 | / | 1.5 | 1.2% | 5 | -3 | -1
Cc1sc2ncnc(NCc3cccnc3)c2c1C
→ 6 | -5% | 2.6 | 4.8% | -4 | -10 | 1
CCOC(=O)N1CCN(C(=O)COc2ccc(Cl)c(C)c2)CC1
→ 12 | -4% | 3.9 | 0.1% | -7 | 8 | -6
CCOC(=O)c1ccc(/C=C2/C=C(c3ccccc3)N(c3ccc(Cl)c(C(=O)O)c3)C2=O)cc1
→ 0 | ? | -0.2 | -3.7% | -3 | -6 | -9
Cc1ccc(S(=O)(=O)N(CCCc2c(C)nc[nH]c2=O)c2ccccc2)cc1
→ -3 | / | -1.8 | -1.9% | -3 | / | -10
Cc1nn(CC(=O)N2CCCc3ccccc32)c(C)c1[N+](=O)[O-]
→ 1 | 18% | -3.8 | 0.8% | -4 | -9 | 8
Cc1n[nH]c(=S)n1-c1ccccc1
→ -8 | -3% | 3.9 | -1.4% | 0 | -2 | 1
Cc1nc2ccc([N+](=O)[O-])cc2c(=O)n1Cc1cccc(Br)c1
→ -23 | -9% | -1.3 | 1.4% | 10 | -11 | -8
O=C(Nc1cccc(NC(=O)c2ccccc2Cl)c1)c1cccs1
→ -7 | 7% | -3.3 | 1.7% | -5 | 14 | 0
Cc1ccc(N2CC(NC(=O)C3CC3)CC2=O)cc1 (centres undefined)
→ 9 | / | 2.8 | -1.0% | -4 | 4 | -2
CC1=NN(C(C#N)c2ccc([N+](=O)[O-])cc2)C(C)(C)C1 (centres undefined)
→ -6 | 1% | -2.2 | 1.1% | 0 | -8 | 0
O=C(Nc1cccc(F)c1)c1ccccc1
→ 4 | 18% | -2.4 | -4.2% | -8 | -35 | 2
Cc1ccc(-c2nnc(SCC(=O)N/N=C/c3ccccc3C(=O)O)n2-c2ccc(Cl)cc2)cc1
→ 0 | 3% | -2.8 | -1.0% | -11 | -13 | 13
CCn1c(=O)c(C(=O)CN2c3ccccc3CC2C)c(N)n(Cc2ccccc2)c1=O (centres undefined)
→ 1 | 7% | -0.3 | 0.6% | -7 | -13 | 3
CCOC(=O)C1(C)CCCN(C(=O)c2cccc3ccccc23)C1 (centres undefined)
→ -4 | / | -5.1 | 0.4% | -10 | / | 10
CN(C)Cc1nnnn1-c1cccc(-n2nnnc2CN(C)C)c1
→ -1 | 7% | -23 | 0.1% | -4 | / | -1
Nc1ccc(S(=O)(=O)Nc2ccc(C(=O)c3ccccc3)cc2)cc1
→ 6 | 0% | -2.5 | 0.0% | -2 | -3 | 1
CCN1CCN(C(=O)C2CCCN(S(=O)(=O)c3cc(Cl)ccc3Cl)C2)CC1 (centres undefined)
→ 11 | 2% | -6.6 | 0.6% | -22 | -10 | 1
Cn1cnc2cc(NC(=O)c3cccs3)ccc21
→ -2 | -10% | -1.6 | 2.2% | -9 | -2 | -3
COc1ccc(N2CCN(C(=O)c3ccc(CNS(=O)(=O)c4cccc(OC)c4)cc3)CC2)cc1
→ -19 | 21% | 1.9 | 1.7% | -6 | 4 | -14
CCCCCCC(=O)N/N=C/c1ccc(Br)cc1
→ 14 | -4% | -0.3 | 8.2% | -4 | 2 | 10

Quoted from the listing (two entries):
Below each compound – CtBP-E1A blk | Sfp PPTase inh | D2 ag | PINK1 modulator | D2 potentiator | TRPV1 potentiator | Six1-Eya2 blk
Cc1onc(-c2ccccc2)c1C(=O)OCC(=O)N(CC(C)C)c1c(N)n(Cc2ccccc2)c(=O)[nH]c1=O
→ 3 | / | 0.0 | 3.5% | 8 | 8 | 6
CCOC(=O)c1sc2ncn(/N=C/c3ccc(O)cc3)c(=O)c2c1C
→ -7 | 0% | 4.7 | 3.8% | -7 | 3 | -3

(listing goes on)
Below each compound – CtBP-E1A blk | Sfp PPTase inh | D2 ag | PINK1 modulator | D2 potentiator | TRPV1 potentiator | Six1-Eya2 blk
COC(=O)[C@@]1(Sc2ccc(C)cc2)CC(=O)N[C@@H]1c1ccc(Br)cc1
→ 1 | / | / | 7.0% | / | / | -4
Cc1ccc(NC(=O)CCSCCc2ccccn2)cc1
→ 1 | -3% | -1.6 | 1.7%&1.1% | 8 | -16 | -10
COc1cc(C2c3sc(=O)[nH]c3SC3C4CCC(C4)C23)ccc1O (centres undefined)
→ -7 | -18% | 4.5 | 9.1%[38.3 µM] | -5 | ? | -4
COc1cccc(-c2sc3ccccc3c2-c2ccc(OCCN3CCCCC3)cc2)c1
→ -7 | / | 11 | -0.3% | -70 | / | -24
O=C(NCC(=O)N(Cc1ccco1)C(C(=O)NC1CCCCC1)c1cccnc1)c1ccco1 (centres undefined)
→ 2 | -4% | -0.7 | -0.2% | -1 | 7 | -2
COc1ccc(OCC(O)CN2CCCCC2)cc1 (centres undefined)
→ -8 | -14% | -3.3 | -0.5% | -5 | / | -2
CCOCCOC(=O)c1[nH]c2c(c1C)C(=O)CC(c1ccc(N(C)C)cc1)C2 (centres undefined)
→ -10 | 10% | 5.8 | 4.5% | 0 | 3 | -19
O=C(Nc1ccccc1N1CCN(c2ccccc2)CC1)c1ccccc1F
→ / | -1% | 4.2 | 0.7% | -4 | 3 | -3
CCN(CC)c1ccc2c(C)cc(=O)oc2c1
→ 1 | / | -1.7 | -1.1% | -6 | -24 | 4
CCC(=O)N1CCN(c2ccc(OC)cc2[N+](=O)[O-])CC1
→ -1 | 9% | -2.1 | -1.1%[38.3 µM] | -10 | -11 | -3
Cc1ccc(S(=O)(=O)Nc2ccc(Cl)cc2)cc1NC(=O)Cn1cnc2c1c(=O)n(C)c(=O)n2C
→ ? | -1% | -1.6 | 1.9% | -2 | 6 | ?
O=[N+]([O-])c1ccc(C(=Nc2cccc3ccccc23)N2CCOCC2)cc1
→ ? | 3% | -0.7 | -0.6% | -9 | 5 | ?
C#CCOCCOCCOCCNc1nc(N2CCN(C(=O)[C@H]([C@@H](C)CC)n3cc([C@@H](N)CO)nn3)CC2)nc(N2CCN(C(=O)[C@H](Cc3ccc(O)cc3)n3cc([C@@H](N)C(C)CC)nn3)CC2)n1 (some centres undefined)
→ / | -4% | -1.7 | 1.3% | -11 | 4 | -24
COCCN1C[C@@H](CO)O[C@@H](n2cnc3c(N(C)C)ncnc32)C1
→ -5 | / | -8.1 | 0.1% | -34 | / | -1
O=C(NCCS(=O)(=O)NCc1ccccc1)c1ccc2c(c1)OCO2
→ 6 | / | -2.4 | 1.8% | -2 | -7 | 3
C/C(=N/NC(=O)Cc1cccn1C)c1ccccc1
→ 2 | 7% | 0.8 | -2.0%[38.3 µM] | -7 | 10 | -6
CCN(c1ccccc1)S(=O)(=O)c1nnc(NC(=O)c2ccco2)s1
→ -25 | 16% | -2.7 | -1.0%&0.4% | -5 | -13 | 4
CN1CCN(S(=O)(=O)c2ccc(NC(=O)Cc3ccc([N+](=O)[O-])cc3)cc2)CC1
→ 4 | 8% | 0.7 | 2.9% | -21 | -1 | -8
CCCCN(CC)CCCNC(=O)c1cc2c(=O)n(C)c3ccccc3c2n1C
→ 0 | 10% | 1.7 | 7.7% | -7 | -4 | 2
CCc1ccc(NC(=O)Cn2c(=O)n(CCC(=O)NC3CCN(Cc4ccccc4)CC3)c(=O)c3ccccc32)cc1
→ / | 1% | -4.2 | 11% | -9 | 0 | 7
CC(=O)Nc1ccc2sn(-c3ccccc3)c(=O)c2c1
→ -13 | / | 0.6 | 0.1% | -13 | / | 10
COCCNC(=O)C1(C)CCCN(C(=O)CCc2ccccc2)C1 (centres undefined)
→ -4 | / | -4.7 | 2.4% | -6 | / | 2
COc1ccccc1-n1c(-c2ccccc2)c[n+]2c1CCc1ccccc1-2
→ 4&-22 | 16%&6% | 1.3&-5.2 | ? | 2&-8 | -1&1 | 4&19
CC1Cc2ccccc2N1C(=O)CN1CCc2ccccc2C1 (centres undefined)
→ -3 | 9% | -4.8 | -0.6% | -34 | 21 | 0
Cc1ccc(S(=O)(=O)N2CCN(C(=O)CCC(=O)OCC(=O)Nc3cccc(C#N)c3)CC2)cc1
→ -3 | 7% | -1.8 | -0.1% | -8 | -12 | -2
CC1(c2ccccc2)CC(C)(C)N2C(=O)/C(=C3\SC(=S)NC3=O)c3cccc1c32 (centres undefined)
→ 5 | -7% | -5.5 | 13% | -12 | -3 | -7
NS(=O)(=O)c1ccc(CCNC(=O)CSc2nc3ccsc3c(=O)n2Cc2ccccn2)cc1
→ -2 | / | -2.8 | 0.7% | -5 | / | -4
Cc1ccc(NC(=S)N(Cc2ccc(Br)cc2)Cc2ccc(C(=O)O)cc2)cc1C
→ 28 | 17% | 0.3 | 0.1% | -10 | 4 | -2
CC(=O)NS(=O)(=O)c1cccnc1Nc1cccc(Cl)c1
→ 11 | 24% | -0.3 | 0.3% | -26 | 1 | 3
COC(=O)c1sc(S(=O)(=O)Nc2ccc(Br)cc2)c(C(=O)OC)c1C
→ 1 | -2% | -0.1 | -1.5% | -20 | 9 | 6
